# TRPV1 potentiator – potentiators of human vanilloid receptor 1 (TRPV1) | 0.02% of 320,000 active | TRPV1-expressing cells, Fluo-8 calcium influx, capsaicin EC20 potentiation; host cell line not named in the record; control for the full effect not named in the record | potentiation, % at 8.33 µM | Q8NER1; active means potentiation above 80%; inconclusive means 30% to 80%; inactive means below 30%; note: 0% is about no effect
#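 Fluo-8 calcium influx in TRPV1-expressing cells, kinetic read (ex 480/em 520 nm). Compound added and read 3 min for agonist activity, followed by capsaicin at EC20 final and 2 min further read for enhancement.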
# Sfp inh – Sfp phosphopantetheinyl transferase inhibition. Q9F4F7. Biochemical Sfp PPTase activity, qHTS. Potency, µM, for inactives: max response, negative = inhibition, most hits filed as inhibitors. 3.5% of 310,000 active. AID 1490; active = well fitted inhibition curve with a large enough effect; inconclusive = small, poorly fitted or top-dose-only effect, or another doubt; inactive = no such curve, though single readings can be large or run the other way;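 note: the enzyme is Sfp with the accession as filed and its product quenches rhodamine fluorescence; potency is the fitted concentration of half-maximal effect; 0% = enzyme reaction without inhibitor and -100% = no enzyme wells; top concentration of the series not given in the record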
#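 With Hepes-Na pH 7.6 buffer containing 10 mM MgCl2, Sfp (15 nM) modified BHQ-2-YbbR (12.5 uM) using rhodamine-CoA (5 uM). Two reads 30 minutes apart at 525/598 nm yielded each well's rate.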
# gsp antag – antagonizes gsp, the McCune-Albright syndrome mutation; gsp-mutant cells, cAMP HTRF, 30 min; control for the full effect not named in the record; Potency, µM (titrated, usually from 76.9 µM), inactives show top-dose activity change, negative = inhibition, hits mostly inhibitors; 0.4% of 340,000 active; active = falling curve of any shape with a large fitted effect; inconclusive = falling curve, mostly with a smaller effect; inactive = flat or rising curve; cell line not stated here;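 note: intracellular cAMP measured with PDE inhibitor Ro 20-1724 present during compound exposure; potency is the fitted concentration of half-maximal effect; % is set by controls: 0 for no effect and ±100 for the full control effect; nearly all actives have a fitted effect of over 65% in size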
#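 Cells, 2000/well, grown 16–24 h in DMEM 10% FBS with 0.5 mg/ml G418, then compounds plus […] (300 uM addition stock), 30 min at 37C. cAMP read by HTRF (cAMP-d2 and anti-cAMP antibody-K in lysis buffer) after 30 min RT.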
# ClpP mod – qHTS Assay for Activators of ClpP | purified B. subtilis ClpP, FRET peptide cleavage, 20 min | AID 651965, 2013 | ATP-dependent Clp protease proteolytic subunit (Bacillus subtilis (strain 168)), P80244 | 1.9% of 340,000 active | Potency, µM (doses to about 57.5 µM), for the others: at the highest dose activity change, negative = active; active = well fitted falling curve with a large enough effect; inconclusive = small, poorly fitted or top-dose-only effect; inactive = no such curve, though single readings can be large or run the other way; note: potency is the fitted concentration of half-maximal effect; the source files actives as falling curves though it sought activators and does not explain the sign; nearly all actives have a fitted effect of over 65% in size; many hits overshoot -100%
# Target sequence (P80244 whole entry, looked up): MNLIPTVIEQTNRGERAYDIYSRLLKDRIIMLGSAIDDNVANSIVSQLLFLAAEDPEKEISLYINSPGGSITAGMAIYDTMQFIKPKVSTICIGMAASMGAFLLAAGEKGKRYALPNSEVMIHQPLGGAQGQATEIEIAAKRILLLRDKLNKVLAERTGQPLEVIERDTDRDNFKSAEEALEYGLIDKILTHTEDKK
#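 FRET quenching reversal measured ClpP activation: 10 microg/mL B. subtilis ClpP at pH 8 with the FRET-FV decapeptide, read at 430 nm after 320 nm excitation. The 20-min minus 0-min signal was scaled between DMSO/no-enzyme wells and ADEP (5.8 microM final).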
# gsp ag – activates gsp, the McCune-Albright syndrome mutation; gsp mutant cells, cAMP HTRF, 30 min; control for the full effect not named in the record; Potency, µM (top dose mostly 76.9 µM), for inactives: at the highest dose activation (cAMP increase), hits mostly activators; 0.13% of 340,000 active; AID 624287; active = well fitted activation curve with a large enough effect; inconclusive = small, poorly fitted or top-dose-only effect, or another doubt; inactive = no such curve, though single readings can be large or run the other way; cell line not stated here;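 note: phosphodiesterase inhibitor Ro 20-1724 added with compounds to block cAMP breakdown; potency is the fitted concentration of half-maximal effect; nearly all actives have a fitted effect of over 60% in size; about a fifth of the inactives were tested at one dose only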
#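 Cells in DMEM/10% FBS with G418 were pretreated with compounds in DMSO plus […] (300 uM stock) for 30 min at 37C. cAMP was measured by HTRF (cAMP-d2 plus anti-cAMP antibody-K) after 30 min at room temperature.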
# D2 potentiator – potentiates the human D2 dopamine receptor allosterically; P14416; DiscoveRx D2 beta-arrestin cells, luminescence, 90 min; 100% = 57 uM dopamine signal; potentiation, % (concentration not given with the values); 0.23% of 360,000 active; AID 624464; active = potentiation of 50% or more; inconclusive = 30% to 50%; inactive = 30% or less;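 note: compound concentration not given in the record; tested on top of an EC20 dose of dopamine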
# Target sequence (P14416 whole entry, looked up): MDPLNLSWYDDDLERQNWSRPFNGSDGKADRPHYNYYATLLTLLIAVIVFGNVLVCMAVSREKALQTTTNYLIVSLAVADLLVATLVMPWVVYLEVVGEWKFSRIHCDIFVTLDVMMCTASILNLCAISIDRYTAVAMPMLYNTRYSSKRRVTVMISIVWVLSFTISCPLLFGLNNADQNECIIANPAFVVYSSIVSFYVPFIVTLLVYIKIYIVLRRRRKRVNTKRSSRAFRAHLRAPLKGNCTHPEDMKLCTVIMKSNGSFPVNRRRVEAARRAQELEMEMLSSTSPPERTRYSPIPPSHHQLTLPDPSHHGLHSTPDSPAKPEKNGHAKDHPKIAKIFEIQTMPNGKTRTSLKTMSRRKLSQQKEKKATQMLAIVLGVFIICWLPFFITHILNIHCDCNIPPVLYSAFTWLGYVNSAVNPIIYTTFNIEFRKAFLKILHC
#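 D2 cells co-treated with compound plus 50 nM dopamine (EC20) for 90 min at 37 deg C to detect potentiation. Beta-arrestin recruitment was read as enzyme-fragment luminescence after 1 h at ambient temperature. Full response was set by 57 uM dopamine.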
# Menin-MLL FL inh – menin-MLL binding inhibition, fluorescein peptide; Fluorescence polarization, fluorescein-MLL peptide displacement from menin; 290,000 tested, under 10 active; FP activity change, % at 61.4 µM; AID 1766; inconclusive = falling polarisation curve, or a change in total fluorescence; inactive = total fluorescence flat and polarisation flat or rising; no compound was filed as active; the % refers to the polarisation; negative = inhibition;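 note: % of control where 0% means no effect; inhibitors lower the polarisation; unlabelled MLL peptide was the positive control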
# Starred values were filed as active, the others as inactive; ? = inconclusive; . = no result given; & = joins results of further samples; [ ] = remark or other dose.
SMILES,TRPV1 potentiator,Sfp inh,gsp antag,ClpP mod,gsp ag,D2 potentiator,Menin-MLL FL inh
Cc1cccc(C)c1NC(=O)C(c1ccccc1)N1CCC1=O (stereo not given),2,14%,-3%,0.2%,-30%,-3,5.7
Cc1ccc(NC(=O)C2CC(Cl)=CCC2C(=O)O)c([N+](=O)[O-])c1 (stereo not given),1,14%,-16%,1.6%,-14%,-10,2.9
CN(C)N1C(N)=C(C#N)C(c2ccccc2F)C2=C1CC(C)(C)CC2=O (stereo not given),19,11%,-18%,0.4%,26%,-9,-0.7
CCOC(=O)c1c(NC(=O)CN2CCCCC2)sc(CN(C)C)c1-c1ccccc1,0,-13%,12%,.,-1%,6,1.0
O=C1N/C(=C\c2ccc(N3CCOCC3)c(F)c2)C(=O)N1Cc1ccccc1,1,0%,16%,2.4%,?,-8,4.0
CC(=O)c1ccc2c(c1)c(C#N)c1ccccc1[n+]2[O-],15,13%,-9%,-1.8%,-3%[15.4 µM],1,?
Cc1ccc(NC(=O)CSCc2ccc(F)cc2)cc1,-8,4%,2%,1.0%,-61%[inhibitor],-3,-0.8
COc1ccccc1N1CCN(C(=O)c2ccc(-c3nc4ccccc4s3)o2)CC1,25,.,?,-4.6%,?,6,.
COc1nc(-c2ccccc2)ccc1-c1noc(-c2ccco2)n1,-7,?,-10%,32µM*,-3%,-8,6.5
Cc1ccc2occ(/C=N/NC(=O)c3ccccc3Br)c(=O)c2c1,13,21%,-2%,53%,2%,-9,0.8
COC(=O)[C@@H]1C[C@H]2CC[C@H](O)C[C@H]2N1Cc1ccccc1OC(=O)c1cccs1,-17,2%&-4%,-4%,-1.0%,.,-6,4.4&7.6
Cc1ccc(S(=O)(=O)N2CCOCC2)cc1C(=O)OCC(=O)N1CCCCC1,.,.,0%,0.9%,-4%,4,.
C=C1OC(CO)(n2cnc3c(N)ncnc32)C(O)C1O (stereo not given),.,16%,.,-1.2%,.,.,-0.5
[O-]/[N+](=C\c1ccco1)c1ccc(Cl)cc1,7,-1%,7%,1.1%,-35%[inhibitor],-2,-0.2
COc1cc(C(=O)NCc2nnc(SCC(=O)c3ccccc3)o2)cc(OC)c1OC,7,-2%,-7%,-3.3%,-23%,-6,.
Cc1ccc(C(=O)Nc2ccncc2)c(Cl)c1,8,28%,-3%,-0.5%,5%[15.4 µM],-6,-3.7
COc1cc(-c2cc3nc(C)c(C)c(=O)n3[nH]2)cc(OC)c1OC,0,13%,8%,?,-11%,-10,-1.0
CCc1ccc(S(=O)(=O)N2CCN(Cc3ccco3)CC2)cc1,-23,13%,-4%,-0.5%,-22%[15.4 µM],-7,-2.6
CCN(CC(=O)Nc1cccc(F)c1)CC(=O)Nc1ccc2c(c1)OCCO2,.,.,.,-4.9%,?,-4,.
O=c1cc(CO)oc2ccccc12,.,.,9%,-2.0%,.,-27,.
O=C(c1ccoc1)N1CCC2(CC1)Oc1ccc(F)cc1C(=O)C21CC(c2cccnc2)=NO1 (stereo not given),-40,2%,-17%,-11%,-4%,-3,4.0
CC1=C(C(=O)OC2CCC(C)CC2)C(c2ccc(O)c([N+](=O)[O-])c2)NC(=O)N1 (stereo not given),-10,29%,?,0.1%,-3%,-1,-0.4
Cc1cnc(C(=O)Nc2cc(F)ccc2C)cn1,-2,12%,-10%,0.0%,20%,-11,9.7
CC(C)(C)NC(=O)NC(=O)COC(=O)CNS(=O)(=O)/C=C/c1ccccc1,8,14%,-15%,0.9%,16%,-8,-0.1
CCCCCCOc1ccc(N2C(=O)CC(S/C(N)=N/N=C(\C)c3cccs3)C2=O)cc1 (stereo not given),8,43%[activator],-7%,-0.6%,13%,8,2.1
COc1ccc(Cc2nc3ccc(C(=O)NC(C)C)cc3o2)cc1,.,.,-3%,-2.1%,4%,0,.
COc1ccc(-c2csc(/C(C#N)=C\c3ccc(OC)c([N+](=O)[O-])c3)n2)cc1,-5,2%,1%,-2.1%,?,-13,?
Cn1c(=O)n(C)c2cc(S(=O)(=O)N3CCCCC3)ccc21,0,11%,1%,.,20%,-7,36[activator]
Cc1ccc(-c2nc3c(c(=O)[nH]c(=O)n3CC(C)C)n2CC(C)C)cc1[N+](=O)[O-],-15,5%,-34%,.,-10%[15.4 µM],-2,-7.7
CCOC(=O)c1cccc(NC(=O)CSc2nnc(C)n2Cc2ccccc2)c1,9,3%,-21%,0.9%,-8%,-11,-0.2
O=C(COc1ccc(Br)cc1Cl)NC(=S)Nc1ccccn1,6,56µM*,8%,4.0%,?,-10,0.2
CCC1CCCCN1S(=O)(=O)c1ccc(NC(=O)c2nc(S(C)(=O)=O)ncc2Cl)cc1 (stereo not given),15,25µM*,?,.,-5%[15.4 µM],-11,5.5
CCc1nc(C)c(C#N)c2cc(OC)c(OC)cc12,-2,-4%,24%,-3.6%,?,-4,0.4
O=C(CNc1n[nH]c(=O)[nH]c1=O)N/N=C/c1ccccc1,-26,11%,8%,-0.2%,21%,-10,-0.7
CCOc1ccc(-c2nnn(CC(=O)c3cc(OC)ccc3OC)n2)cc1,7,?,0%,32µM*,?,-2,0.6
CCOc1ccc(NS(=O)(=O)c2cc3c(cc2C)N(C)CCO3)cc1,-17,4%,-4%,0.4%,-16%,-6,-0.4
Cc1cc(NC(=O)COC(=O)c2ccc(C)c(C)c2)no1,.,.,3%,0.1%,5%[15.4 µM],-2,.
Nc1cc(N)nc(SCc2cccc(F)c2)n1,9,12%,5%,-1.3%,-27%,-16,0.4
Cc1ccc(Nc2nc3nonc3[nH]c2=O)cc1C,6,-28%,-22%,0.3%,-23%,-19,-1.9
FC(F)(F)c1cccc(-c2nc(COc3ccc(Cl)cc3Cl)no2)c1,8,?,-9%,-2.0%,14%[15.4 µM],-2,4.9
Cc1cccc(-c2nnc(SCC(=O)C(C)(C)C)n2C)c1,-8,14%,8%,.,-15%[15.4 µM],0,1.1
CC1(C)C2CC=C(/C=N/NC(=O)C(N)=O)C1C2 (stereo not given),.,-3%,-9%,0.6%,-36%[inhibitor],-14,7.2
CN(c1ccc(OCC(=O)N2CCN(c3ccc(F)cc3)CC2)cc1)S(=O)(=O)c1cccs1,4,-17%,-17%,.,4%,-9,4.4
CCOC(=O)N1CCN(c2cc(C)nc3nc(C)nn23)CC1,11,3%,-3%,0.9%,2%,2,-0.9
COc1cc(CNc2nc(C)c([N+](=O)[O-])c(C)c2C#N)cc(OC)c1,3,8%,3%,-3.5%,-13%,-3,1.9
Cc1nn(-c2nc3ccccc3[nH]2)c(N)c1-c1ccc(Cl)cc1,5,-32%,8%,-2.8%,15%,11,-1.6
Cc1cc(NC(=O)c2cccc(N3C(=O)CCC3=O)c2)no1,3,11%,3%,-3.3%,-2%,28,8.4
Clc1ccc(-c2cn3cccnc3n2)cc1Cl,-14,2%,10%,11µM*,1%,14,3.0

# 2 entries drawn at random from the list so far, as already listed:
SMILES,TRPV1 potentiator,Sfp inh,gsp antag,ClpP mod,gsp ag,D2 potentiator,Menin-MLL FL inh
COc1ccccc1N1CCN(C(=O)c2ccc(-c3nc4ccccc4s3)o2)CC1,25,.,?,-4.6%,?,6,.
Nc1cc(N)nc(SCc2cccc(F)c2)n1,9,12%,5%,-1.3%,-27%,-16,0.4

# (cont.)
SMILES,TRPV1 potentiator,Sfp inh,gsp antag,ClpP mod,gsp ag,D2 potentiator,Menin-MLL FL inh
CN(C)c1nc(N)nc(/C(C#N)=C/C2CC3C=CC2C3)n1 (stereo not given),-12,56µM*,8%,-1.1%,0%,-17,?
CC(=O)Nc1ccc(/C(C)=N\NC(=O)c2ccc(-c3ccccc3)cc2)cc1,1,-22%,.,.,.,.,-0.1
CN(C)CCCNC1=CC(=O)OC12CCCCC2,4,10%,6%,-1.3%,?,-7,-1.1
COC(=O)CN=Cc1c(O)n(-c2ccc(Cl)cn2)c(=O)c2ccccc12,8,8%,-3%,.,29%[15.4 µM],-5,-1.6
CC(C)c1ccc(OCC(=O)N(c2ccccn2)C2CCCCC2)cc1,-2,-17%,-4%,-10%,-34%[inhibitor],-20,0.0
CC(C)(C)NC(=O)CSc1nc(-c2ccc(F)cc2)cs1,-14,11%,-3%,-1.4%,-1%[15.4 µM],-28,-0.9
O=C(NC1CCCC1)C(c1ccccn1)N(C(=O)c1csnn1)c1ccccc1F (stereo not given),0,6%,-3%,.,-22%,-5,-0.9
Cn1c(CSc2nc3ccccc3s2)nnc1SCC(=O)NCc1ccccn1,-2,-6%,-7%,-0.3%,-50%[inhibitor],1,6.1
CC(=C/c1ccccc1)/C=N/Nc1nc(N2CCCCC2)nc(N2CCCCC2)n1,-5,12%,0%,1.1%,-14%,-14,0.0
COc1ccc(C(=O)c2ccc(OC)c(N)c2)cc1N,-17,2%,7%,-2.3%,23%,0,-1.0
COc1ccc(C(=O)Nc2cc(OC)nc(OC)n2)cc1,-58,-3%,-1%,-2.6%,21%,1,1.1
CCOC(=O)N1CCN(S(=O)(=O)N2CCCC(C(=O)NCCCN3CCCCC3)C2)CC1 (stereo not given),7,4%,21%,0.0%,1%,-10,.
CC(SC(=S)N1CCCC1)C(=O)O (stereo not given),9,15%,5%,.,1%[15.4 µM],-10,4.7
O=C1CCCc2c1cc(C(=O)O)c(=O)n2-c1ccccc1,-1,9%,11%,.,15%[15.4 µM],3,0.9
CC(C)N(C)CCOC(=O)c1ccc2c(c1)OCCO2,-3,16%,15%,-11%,-52%[inhibitor],-12,0.6
CCOc1ccccc1NC(=O)c1oc2ccccc2c1NC(=O)C1CCCO1 (stereo not given),-5,-4%,-21%,-2.6%,-1%[15.4 µM],-5,0.2
COc1cc(C(=O)Nc2c(C)cc(C)cc2C)c([N+](=O)[O-])cc1OC,7,5%,6%,-26%,-3%,-12,3.3
COC(=O)c1cc(NC(=O)COC(=O)C2COc3ccccc3O2)cc(C(=O)OC)c1 (stereo not given),.,.,-2%,-0.5%,?,0,.
O=[N+]([O-])c1ccc(N2CCCCC2)nc1,?,12%,1%,-3.3%,?,-2,-4.6
Cc1ccc2[nH]cc(C(=O)CN3CCC4(CC3)OCCO4)c2c1,2,15%,5%,-2.9%,-8%,-10,0.7

# Screening results deposited in PubChem by National Center for Advancing Translational Sciences (NCATS).
